Mtb hypoxia rep = reduces hypoxia-regulated biosensor signal in M. tuberculosis; hit rate 0.1% among 300,000; M. tuberculosis hypoxia-regulated fluorescent reporter, fluorescence; fluorescence inhibition, % (test concentration not listed); AID 1159583;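 active means 35 to 45% if threefold the growth effect, above 45% if 1.5-fold the growth effect; inactive means the rest, general growth blockers included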;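 further: wells of about 50 µL received 100 nL stock; 0% = vehicle wells and 100% = reference inhibitor wells; whole bacteria with a GFP reporter of the hypoxia response; strong numbers were not always called active; many hits fall short of the cut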
Sa ugtP lethal = compounds lethal to S. aureus RN4220 ugtP deletion mutant | AID 1259309 | hit rate 0.54% among 330,000 | growth inhibition, % (test concentration not listed) | OD600 growth, 16 h; some inactives read as strong as hits;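 active means z-score under -3 and OD600 up to 0.15 on both plates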;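 further: plate controls were untreated wells for no effect and antibiotic for full effect; wells of about 80 µL received 100 nL stock; the first replicate is given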
BJeLR viability = BJeLR cell viability loss. BJeLR (HRASV12) viability, CellTiter-Glo ATP luminescence, 48 h; reference of the scale not given here. inhibition, % (concentration not given with the values). hit rate 0.17% among 300,000. AID 1554;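 active means replicate mean above 50%; inconclusive means above 50% but judged a plate artefact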;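 further: 50 nL library stock added to about 25 µL; numbers are from one replicate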
RN4220 kill = S. aureus RN4220 growth inhibition; AID 1259311; hit rate 0.33% among 330,000; OD600, 16 h; inhibition, % (no concentration beside the values);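 active means z-score of -3 or lower and OD600 up to 0.18 on both plates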;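 further: plate controls were untreated cells for no effect and reference antibiotic for full effect; stock transfer was 100 nL into about 80 µL; one replicate is shown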
Autofluor counter = flagged as autofluorescent in microsphere protease counterscreen. compound autofluorescence counterscreen, microsphere flow cytometry; stronger effect = higher value. fluorescence intensity (test concentration not listed). hit rate 3.1% among 360,000;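 active means at least 3 SD above the mean of all compounds, about 16000 in these data; inconclusive means too few beads counted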;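 further: 100 nL of 1 mM stock went into each well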
PrP UTR inh = inhibition of PrP 5' UTR reporter expression. cell-based PrP 5' UTR mRNA reporter, plate reader. inhibition, % (concentration not given with the values). hit rate 0.35% among 340,000;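 active means every replicate at 50% or more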;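 further: 0 = median of the neutral control wells; tested in H4 reporter cells; numbers are from one replicate; inactives centre near -14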
Mtb hypoxia rep growth = further read-out of Mtb hypoxia rep, marked with its call; growth inhibition, %; measured here: M. tuberculosis growth (absorbance);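 0% = vehicle and 100% = reference antibiotic; read after six days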
Starred values were filed as active, the others as inactive; ? = inconclusive; . = not tested or not shown.

SMILES	Mtb hypoxia rep	Mtb hypoxia rep growth	Sa ugtP lethal	BJeLR viability	RN4220 kill	Autofluor counter	PrP UTR inh
CCn1c(CNC(=O)c2ccco2)nnc1SCC(=O)c1ccc(F)cc1	4	-6	2	0	1.4	3264	-4
COc1ccc(Cl)cc1NC(=O)COC(=O)C1=NNC(=O)CC1	10	4	5	.	0.4	2998	4
O=C(Cn1ccnc1[N+](=O)[O-])NCc1ccccc1	3	5	3	-20	8.3	6072	-16
O=S(=O)(Cc1ccccc1)N1CCN(Cc2ccc(F)cc2Cl)CC1	4	-1	7	1	3.7	4341	-20
N#CC1=C(N)NC(=S)C(C(N)=O)C1c1ccc(Cl)cc1Cl (centres undefined)	2	1	41	-4	13	4415	-33
O=C1NC(=S)S/C1=C\c1cc(Cl)cc(Cl)c1O	24	-3	74	.	70	3927	-22
COc1cccc(N(C(=O)Cn2nnc(-c3ccc(C)o3)n2)C(C(=O)NC(C)(C)C)c2cccs2)c1 (centres undefined)	-10	4	-10	-1	-1.8	9431	-12
COc1ccc2[nH]c3c(c2c1)CCN1C(=O)C(CC(=O)NCCc2ccccn2)C[C@H](C(=O)N(C(C)C)C(C)C)[C@@]31C (some centres undefined)	-6	2	3	.	4.2	4083	-1
Cc1cccc(N2CCN(S(=O)(=O)c3ccc4c(c3)C(C)(C)C(=O)N4C)CC2C)c1 (centres undefined)	13	9	3	4	0.0	5365	7
CCC(=O)N1CCN(c2cc(C)ccc2C)CC1	.	.	2	11	-6.3	3342	-10
Cc1ccc(S(=O)(=O)N(C)C)cc1NC(=O)CCNC(=O)c1ccco1	-1	-5	7	5	-1.8	3539	-23
CC(=O)NC(N(C#N)c1nc(Cl)nc(N(C)C)n1)C(Cl)(Cl)Cl (centres undefined)	-10	-7	10	1	2.3	3116	-15
O=C(NCCCn1ccnc1)c1sc2cccc(F)c2c1Cl	-1	3	-3	-14	5.6	21856*	-44
Cc1c(NC(=O)c2ccc(Cl)s2)c(=O)n(-c2ccccc2)n1C	13	8	6	-3	1.0	2061	-20
O=C1CCCN1Cc1ncnn1-c1ccccc1	19	10	-5	-5	-9.7	2919	-6
CN(Cc1ccc(OC(F)F)cc1)C(=O)c1ccc(S(=O)(=O)N(C)c2ccccc2)cc1	-1	6	1	.	5.6	?	-16
O=C(NCC(=O)N(Cc1cccs1)C(C(=O)NC1CCCCC1)c1ccco1)c1cccs1 (centres undefined)	4	4	-11	9	-1.7	3527	-11
O=C(CSc1nnc2c(n1)[nH]c1ccc(F)cc12)OCc1ccccc1	5	1	-3	-4	1.0	3682	1
COc1ccc(/C=N/NC(=O)c2[nH]c3ccc(C)cc3c2-c2ccccc2)c(C(=O)O)c1OC	.	.	.	5	.	2847	-1
CCCCc1nnc(SCc2ccc(OCC)cc2)n1N	7	1	0	-9	5.4	4545	-9
CCOC(=O)c1c(C)nc2c(c1C)C(=NO)CC(C)(C)C2	12	-5	5	.	2.9	.	.
O=C(Nc1ccccc1)c1ccc(OC(=O)c2ccccc2)cc1	-10	7	0	7	2.2	4021	-37
CCCc1nc(SC2CCCC2)c2c(=O)n(C)c(=O)n(C)c2n1	5	14	2	7	2.1	6609	-27
O=C(CN1C(=O)S/C(=C/c2cc(Br)cs2)C1=O)N1CCOCC1	4	2	6	-1	1.1	2461	-15

Three compounds drawn at random from the list so far, as already listed:
SMILES	Mtb hypoxia rep	Mtb hypoxia rep growth	Sa ugtP lethal	BJeLR viability	RN4220 kill	Autofluor counter	PrP UTR inh
CCCc1nc(SC2CCCC2)c2c(=O)n(C)c(=O)n(C)c2n1	5	14	2	7	2.1	6609	-27
O=C(NCCCn1ccnc1)c1sc2cccc(F)c2c1Cl	-1	3	-3	-14	5.6	21856*	-44
CCOC(=O)c1c(C)nc2c(c1C)C(=NO)CC(C)(C)C2	12	-5	5	.	2.9	.	.

Next part:
SMILES	Mtb hypoxia rep	Mtb hypoxia rep growth	Sa ugtP lethal	BJeLR viability	RN4220 kill	Autofluor counter	PrP UTR inh
COc1ccc(C(=O)OCC(=O)NC(=O)NC2CCCC2)c(O)c1	1	4	6	-1	9.8	4455	-14
Cc1ccc(C(=O)OCC(=O)NNC(=O)c2cccs2)c(O)c1	6	2	2	7	0.5	6630	-20
Cc1ccc(S(=O)(=O)n2cccc2C)cc1	16	6	2	1	5.4	5475	.
CCCn1nnnc1NCc1ccc(Cl)cc1Cl	1	-8	3	-32	3.6	4470	-16
COc1ccc(S(=O)(=O)N2CCCC2c2cccs2)cc1 (centres undefined)	5	-1	7	1	6.1	4511	-14
COC(=O)c1c(NC(NC(C)=O)C(Cl)(Cl)Cl)sc2c1CCCC2 (centres undefined)	6	5	-23	-1	0.2	2573	2
O=C(Cn1ccc2ccccc2c1=O)NCCC(=O)N1CCN(c2ccccc2)CC1	-3	-5	2	-3	3.4	6220	-14
Cn1cc(CCNC(=O)CC2C(=O)NCCN2Cc2cccc(Oc3ccccc3)c2)cn1 (centres undefined)	10	14	-6	-3	0.3	2611	-19
CCc1ccc2c(c1)C(=O)C(=O)N2CCS(=O)(=O)c1ccccc1	10	0	4	-4	3.5	5613	-18
COCCn1c(SCC(=O)Nc2ccc(C)cc2C)nc2c(oc3ccccc32)c1=O	-2	4	2	-20	3.1	2154	-32
O=C(CSc1ccc2nnc(CCNC(=O)c3ccccc3)n2n1)Nc1ccccc1	5	14	1	-4	0.7	4259	-15
CCN(CC)CC(=O)c1c[nH]c2ccccc12	9	13	-9	-1	-11	3463	-9
COC(=O)c1cccc(C(=O)N2CCCC(C(=O)c3ccccc3OC)C2)c1 (centres undefined)	0	3	0	9	2.4	5840	-18
CCC1CN(C(=O)N2CCC(C(=O)NCc3ccccc3OC)CC2)c2cc(C)ccc2O1 (centres undefined)	-4	9	-2	-6	-1.7	4937	8
CCOC(=O)c1sc(NC(=O)CCN2CC(C)OC(C)C2)c(C(=O)OCC)c1C (centres undefined)	4	3	9	1	8.7	.	.
Nc1nncn1C(=O)c1ccccc1Cl	-5	7	-4	1	-0.6	12359	-17
c1ccc2c(C3=NNC(=NC4CCCCC4)SC3)c[nH]c2c1	-31	-9	-14	-8	-1.9	2451	-50
CCc1nnc(NS(=O)(=O)c2ccc(NC(=S)NC(=O)/C=C/c3ccc([N+](=O)[O-])cc3)cc2)s1	.	.	.	2	.	4408	-5
Cc1cccc(OCC(=O)Nc2ccc(N3CCN(S(C)(=O)=O)CC3)cc2)c1	17	6	-1	2	5.1	3887	-11
CCc1ccc(OCC(=O)NC(NC(=S)Nc2ccccc2OC)C(Cl)(Cl)Cl)cc1 (centres undefined)	2	-1	3	-9	-3.1	2498	-10
CC(NC(=O)C1CCN(S(=O)(=O)c2cccc3nonc23)CC1)c1ccccc1 (centres undefined)	5	-3	8	1	1.3	2906	5
O=C(CNC1CCCCC1)Nc1ccc(S(=O)(=O)N2CCCCC2)cc1	-4	8	-4	5	0.4	3761	14
C/C(=N\O)C(=O)Nc1ccccc1	.	.	.	-7	.	4298	-9
O=C(NC1CCCCC1)NC1C2CC3CC(C2)CC1C3 (centres undefined)	12	9	-4	0	5.7	5387	-14
COC(=O)c1cc2c(=O)c3ccccc3oc2nc1C	10	1	14	-1	0.4	3524	-97
COc1cccc(C(=O)Nc2ccc(S(=O)(=O)Nc3nccc(C)n3)cc2)c1	14	14	4	-3	1.2	1992	-21
CC1CCN(C(=O)COC(=O)/C=C/c2ccco2)CC1	-4	6	2	.	2.0	3915	-7
COc1cc(C(=O)Nc2nc(C)cc(C)n2)cc(OC)c1OC	-10	-5	4	-7	2.1	3886	-16
O=C(NN=CC1C(c2ccccc2)C1(Cl)Cl)c1cccc(Br)c1 (centres undefined)	5	-1	9	.	0.2	.	.
CCOc1ccc(CCn2c(-c3ccco3)nc3ccccc3c2=O)cc1OCC	1	9	-6	6	7.7	16599*	-11
CCOC(=O)/C(=N\Nc1ccc(Br)cc1)N1CC(C)OC(C)C1 (centres undefined)	.	.	.	-8	.	4466	3
Cc1ccc2oc(C(=O)N(Cc3nccn3C)C(C)C)c(C)c2c1	2	5	10	6	5.5	5220	-11
CC(=O)C1CCC2C3CCC4CC(OC(=O)CCC(=O)O)CCC4(C)C3C(=O)CC12C (centres undefined)	-9	10	-7	.	7.6	3779	-5
CCCCc1ccc(NC(=O)OC)cc1	.	.	.	-9	.	3308	-17
CC1CN(CC(=O)Nc2cc(S(=O)(=O)N3CCCC3)ccc2Cl)CC(C)O1 (centres undefined)	12	8	6	1	4.2	3976	-36
O=C(NCCC1=CCCCC1)c1cc(S(=O)(=O)N2CCCCC2)ccc1Cl	-2	-1	7	-7	3.6	5588	-8
O=C1c2oc3ccccc3c(=O)c2C(c2cccc(O)c2)N1CCCN1CCOCC1 (centres undefined)	.	.	4	1	2.5	5532	-22
CC(C)CCNC(=O)c1ccc2c(SCC(=O)O)c3c(nc2c1)CCC3	-7	4	7	-1	6.7	4418	-7
CCCc1nnc(NC(=O)CCC(=O)Nc2ccc(Cl)cc2)s1	6	2	13	-2	5.2	5089	-5
Cc1ccc(-c2csc(C3=C(O)CN(NC(=O)c4ccc([N+](=O)[O-])cc4)C3=N)n2)cc1	3	-4	0	-1	3.1	2120	-8
O=C(O)CN(c1ccccc1)S(=O)(=O)c1cc(C(F)(F)F)cc(C(F)(F)F)c1	2	9	-2	1	7.5	2700	-39
CC(=O)c1ccc(Nc2ccc([N+](=O)[O-])c3nonc23)cc1	-6	-9	2	1	5.0	4043	-36
Cc1ccc(S(=O)(=O)N2CCOCC2)cc1C(=O)NCc1ccccc1CN1CCCC1	23	11	6	.	3.5	3964	-28
Cn1c(=O)c2c(nc(Sc3nc4ccccc4n3CC(=O)N3CCCCC3)n2C)n(C)c1=O	-3	-1	8	-3	-2.1	2414	-7
O=C1/C(=C\c2cc(Cl)c(O)c(Cl)c2)SC(=S)N1Cc1ccccc1	.	.	.	16	.	17886*	-46
CN(C)Cc1ccc(F)cc1Sc1ccc(Cl)cc1Cl	2	4	62	-5	-0.2	8062	-7
O=C(NCc1ccccc1C(F)(F)F)C1CC(O)CN1C(=O)Nc1ccccc1 (centres undefined)	10	4	2	16	4.0	3754	-21
COc1ccc(C(=O)NCc2nc3ccccc3[nH]2)cc1OC	2	3	4	5	-11	4844	-17
CCC(=O)Nc1ccc(OCc2nc3ccccc3s2)cc1	14	8	3	0	0.1	4704	-71
O=C(Cn1cc2c(n1)CCCC2)N1CCc2ccccc21	.	.	9	-1	2.3	5546	-12
COc1ccc(-c2nn(-c3ccccc3)cc2C(=O)n2nnc3ccccc32)cc1	.	.	4	8	-1.4	3681	-18
O=C1OCc2ccc(NC(=O)c3sccc3Cl)cc21	5	-2	3	7	-1.6	3767	-39
C=CCn1c(=O)c(C(=O)Nc2ccccc2C(=O)OCC)c(O)c2ccccc21	.	.	11	5	16	3682	-6
CCn1cc(C(=O)N2CCc3ccccc3C2)c(=O)c2cc(S(=O)(=O)N3CCCCC3)ccc21	5	9	7	10	3.8	.	.
CSc1ccccc1NC(=O)COC(=O)CCC(=O)c1ccc(F)cc1	4	0	11	.	6.0	2756	0
O=C(Cc1ccccc1)NC(=S)Nc1cc(C(F)(F)F)ccc1Cl	.	.	27	-2	-4.5	2876	-14
COc1ccccc1N1CCN(C(=S)Nc2ccc3nc(N4CCOCC4)cc(C)c3c2)CC1	-6	-10	-6	-12	-2.9	2523	-29
O=C(NN=Cc1ccc2cccnc2c1)c1nc2ccccc2c(=O)[nH]1	-6	3	13	.	1.1	.	.
CNS(=O)(=O)c1ccc(OC)c(-c2nnc3c4ccccc4c(C)nn23)c1	7	10	-3	-3	-6.4	2635	-6
COCC(=O)N(Cc1cc2cc(OC)ccc2[nH]c1=O)c1ccccc1OC	-4	-2	6	4	15	?	-3
O=C(NCC1CCCN(C(=O)c2cc(Cl)ccc2F)C1)c1ccc(F)cc1 (centres undefined)	-6	-4	-8	3	-2.2	5742	-4

Whole records, quoted from the list. Values in the order: Mtb hypoxia rep, Mtb hypoxia rep growth, Sa ugtP lethal, BJeLR viability, RN4220 kill, Autofluor counter, PrP UTR inh
`C=CCn1c(=O)c(C(=O)Nc2ccccc2C(=O)OCC)c(O)c2ccccc21` as listed: ., ., 11, 5, 16, 3682, -6
`O=C1OCc2ccc(NC(=O)c3sccc3Cl)cc21` as listed: 5, -2, 3, 7, -1.6, 3767, -39
`CCn1cc(C(=O)N2CCc3ccccc3C2)c(=O)c2cc(S(=O)(=O)N3CCCCC3)ccc21` as listed: 5, 9, 7, 10, 3.8, ., .

Screens deposited in PubChem by several laboratories.
